High-throughput results from PubChem.
MARV entry inh: blocks Marburg virus binding to or entry into cells; Marburg virus pseudotyped entry inhibition, cell reporter; control for the full effect not named in the record; about a third of the inactives were read at about 46 µM; Potency, µM (series often up to 37.8 µM), inactives show top-dose activity change, negative = inhibition, most hits filed as inhibitors; 1.8% of 300,000 active; AID 540276; active = well fitted inhibition curve with a large enough effect; inconclusive = small, poorly fitted or top-dose-only effect, or effect the other way; inactive = flat fitted curve, though single readings scatter; tested in HEK293 cells; about a fifth of its hits are not listed in these tables; further: on the % scale 0 is the no-effect control and ±100 the full control effect; luciferase read-out
RE007 growth inh: less growth of the S. pombe RE007 Vpr strain. S. pombe RE007 Vpr strain, BacTiter-Glo ATP luminescence, 24 h; control for the full effect not named in the record. AID 651644. 0.21% of 360,000 active. Potency, µM (titrated, usually from 92.2 µM), without a hit: at the highest dose activity change, negative = less growth; active = well fitted falling curve with a large enough effect; inconclusive = small, poorly fitted or top-dose-only effect; inactive = no such curve, though single readings can be large or run the other way;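 further: on the % scale 0 is the no-effect control and ±100 the full control effect; nearly all actives have a fitted effect of over 50% in size; the assay follows cell death caused by Vpr and the record does not say whether a fall means rescue or toxicity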
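Fission yeast RE007 carrying one integrated HIV-1 vpr copy, seeded at OD 0.01 in PMG+AL medium with 23 nL pinned compound. Grown 24 h at 30 degrees; viability read by BacTiter-Glo luminescence after 5 min.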
Lassa entry inh: Lassa virus entry inhibition. 1.2% of 300,000 active. AID 540256. Potency, µM (highest dose often 37.9 µM), without a hit: at the top dose activity change, negative = inhibition, actives largely listed as inhibitors. Lassa virus pseudotype entry inhibition, cell reporter; control for the full effect not named in the record; active means well fitted inhibition curve with a large enough effect; inconclusive means small, poorly fitted or top-dose-only effect, or effect the other way; inactive means flat fitted curve, though single readings scatter; tested in HEK293 cells; further: on the % scale 0 is the no-effect control and ±100 the full control effect; nearly all actives have a fitted effect of over 50% in size; luciferase read-out
2A StopGo: FMDV 2A StopGo reporter, luciferase signal. human cells with a luciferase reporter of 2A StopGo recoding; control for the full effect not named in the record. Potency, µM (titrated, usually from 57.9 µM), without a hit: at the top dose signal change, negative = less light. 1.2% of 410,000 active. AID 1159524; active = well fitted falling curve with a large enough effect; inconclusive = small, poorly fitted or top-dose-only effect; inactive = no such curve, though single readings can be large or run the other way; tested in HEK293T cells; further: on the % scale 0 is the no-effect control and ±100 the full control effect; nearly all actives have a fitted effect of over 45% in size; luciferase light after 4 h
SARS PLP yeast: blocks SARS-CoV papain-like protease in a yeast assay | S. cerevisiae expressing SARS-CoV PLpro, growth rescue; control for the full effect not named in the record | 0.19% of 330,000 active | AID 485353 | Potency, µM (series often up to 32.9 µM), for the others: top-dose activity, positive = growth rescue; further: 0% is about no effect; nearly all actives have a fitted effect of over 55% in size; growth read by luminescence after 48 h
Cruzain inh noDet: blocks cruzain activity in detergent-free assay; P25779; Potency, µM, for inactives: max response, negative = inhibition, actives largely listed as inhibitors; purified cruzain, Z-FR-AMC fluorescence, no detergent; 2.3% of 200,000 active; active means well fitted curve in the direction sought with a large enough effect; inconclusive means small, poorly fitted or top-dose-only effect, or another doubt; inactive means no such curve, though single readings can be large; an effect the other way counts as inactive or inconclusive;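 further: plate controls were enzyme without inhibitor for no effect and buffer without enzyme for full effect; nearly all actives have a fitted effect of over 40% in size; top concentration of the series not given in the record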
Target sequence (P25779 123-467 limits assumed): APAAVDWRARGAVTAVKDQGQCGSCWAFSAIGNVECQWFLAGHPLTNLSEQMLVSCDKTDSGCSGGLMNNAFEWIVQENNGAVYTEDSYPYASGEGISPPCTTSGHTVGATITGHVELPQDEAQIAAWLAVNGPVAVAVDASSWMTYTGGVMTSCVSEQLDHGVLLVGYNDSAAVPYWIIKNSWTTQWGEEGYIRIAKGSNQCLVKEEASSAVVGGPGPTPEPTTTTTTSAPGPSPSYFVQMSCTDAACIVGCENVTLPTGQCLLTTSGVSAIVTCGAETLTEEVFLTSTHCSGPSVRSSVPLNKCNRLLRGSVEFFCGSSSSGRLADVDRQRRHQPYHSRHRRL
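Purified cruzain at 1.5 nM, pre-incubated 15 min with compound at room temperature in 100 mM sodium acetate pH 5.5, 5 mM DTT, 0.00005% Triton X-100. Reaction started with 2 uM Z-FR-AMC; AMC fluorescence increase over 60 s gives rate.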
Cruzain inh Det: cruzain (T. cruzi) inhibition with detergent; AID 1478; purified cruzain, Z-FR-AMC fluorescence, 0.01% Triton; 0.43% of 200,000 active; Potency, µM, without a hit: max response, negative = inhibition, actives largely listed as inhibitors; active means well fitted curve in the direction sought with a large enough effect; inconclusive means small, poorly fitted or top-dose-only effect, or another doubt; inactive means no such curve, though single readings can be large; an effect the other way counts as inactive or inconclusive;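 further: plate controls were neutral wells for no effect and buffer without enzyme for full effect; nearly all actives have a fitted effect of over 40% in size; top concentration of the series not given in the record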
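Enzyme 1.5 nM, Z-FR-AMC 2 uM, NaOAc 100 mM pH 5.5, DTT 5 mM, Triton X-100 0.01%; 15 min RT compound preincubation; kinetic ex360/em450, 60 s delta.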
NS1 inh: influenza NS1 inhibition; 0.4% of 270,000 active; Potency, µM (titrated, usually from 46.1 µM), inactives show top-dose activity, positive = more growth; S. cerevisiae slowed by influenza A NS1, growth recovery by OD600; further: actives are rising curves; nearly all actives have a fitted effect of over 50% in size
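Compounds were scored for reversing the slow growth caused by influenza A NS1 in S. cerevisiae, measured by optical density at 600 nm. Assay medium contained 2% galactose at pH 6.0; NS1-free yeast of the same strain were the positive control.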
An asterisk follows results filed as active; ? = inconclusive; · = no result given; & = joins results of further samples; [ ] = remark or other dose. Unless noted, the call rests on the fitted dose curve; in most records, active means well fitted rising curve with a large enough effect; inconclusive means small, poorly fitted or top-dose-only effect; inactive means no such curve, though single readings can be large or run the other way. Potency means the concentration at half of the fitted maximal effect.

Below each SMILES – MARV entry inh	RE007 growth inh	Lassa entry inh	2A StopGo	SARS PLP yeast	Cruzain inh noDet	Cruzain inh Det	NS1 inh
CCOc1cc(/C=C2/SC(=S)N(CC(=O)O)C2=O)ccc1OC(=O)c1cccs1
    ·	15.6%	·	-14.7%	4.0%	·	·	?
CC(=O)Nc1ccc(NC(=O)CSc2nnc(C)n2-c2ccccc2)cc1
    ·	6.4%	·	-19.9%	2.4%	·	·	8.1%
Cc1ccnc(NS(=O)(=O)c2ccc(NC(=O)c3ccc(Cl)cc3[N+](=O)[O-])cc2)n1
    ·	2.7%	·	-7.9%	-1.7%	·	·	0.8%
COc1cccc(-n2c(SCC(=O)N3c4ccccc4CC3C)nnc2-c2ccco2)c1 (stereo not drawn)
    ?	12.7%	-15.7%	-8.5%	1.4%	?	1.9%	12.7%
COc1ccc(NC(=O)Nc2ccc(Br)cn2)cc1
    ·	-4.8%	·	61.9%[activator]	0.1%	·	·	4.1%
O=C(NC1CCN(S(=O)(=O)c2ccc(F)cc2)CC1)c1cccnc1
    2.6%[46.1 µM]	6.3%	7.5%	-7.9%	2.8%	·	·	4.0%
CC(C)c1ccc(N2C(=O)CC(NNC(=O)c3cccnc3)C2=O)cc1 (stereo not drawn)
    6.9%	1.1%	27.9%	-1.3%	-1.1%	·	·	5.4%
CC(=O)Oc1ccc2ccccc2c1C(NC(=O)C(C)C)c1cccc([N+](=O)[O-])c1 (stereo not drawn)
    ?	15.2%	?	·	2.0%	-5.0%	-5.0%	-5.7%
COc1cccc(CNC(=O)c2ccc(-c3nc(CS(=O)c4ccccc4)c(C)o3)cc2)c1 (stereo not drawn)
    ·	·	17.8%[46.1 µM]	-10.3%	·	26.0%	-2.3%	·
CC1CC(C)CN(c2ccc([N+](=O)[O-])cc2-c2nn[nH]n2)C1 (stereo not drawn)
    0.7%	-15.6%	?	2.8%	-0.3%	0.5%	-8.6%	-3.1%
CN1CCN(C(=O)CCS(=O)(=O)c2cc3c(cc2Cl)NC(=O)CO3)CC1
    ·	-7.9%	·	-1.6%	-0.9%	·	·	-7.0%
COC(=O)c1ccc(CSc2nc(C)nc3sc(C)c(C)c23)o1
    3.1%	5.6%	1.3%	-15.8%	4.8%	12.0%	0.8%	-2.8%
CCOn1c(=O)c(=O)n(OCc2ccccc2)c2ccccc21
    -5.3%[46.1 µM]	-16.6%	-19.1%	-18.5%	-2.9%	-28.1%	-0.1%	-4.8%
Cc1cccc(CNC(=O)C2CCN(c3nnc(-n4c(C)ccc4C)s3)CC2)c1
    -6.2%[46.1 µM]	·	-4.9%[46.1 µM]	-21.9%	·	-6.3%	-1.5%	·
CCC(C)(C)C1CCc2c(sc(NC(=O)c3cccs3)c2C(N)=O)C1 (stereo not drawn)
    7.2%	-12.9%	11.6%	8.0%	5.3%	?	-1.8%	-0.9%
CC1=C(C(=O)OC(C)C)C(c2cccs2)N2C(=O)CCSC2=N1 (stereo not drawn)
    1.1%	-2.7%	?	-20.9%	-8.1%	-4.4%	-7.4%	4.1%
Cn1c(O)c(N=NC(=O)Cn2ccc(C(F)(F)F)n2)c2ccccc21
    ?	-9.4%	17.3%	-8.0%	7.6%	10.8%	-6.3%	20.2%
COC(=O)/C=C/c1cnc2ccccc2c1
    ?	-5.0%	13.5%[46.1 µM]	56.2%[activator]	-1.0%	·	·	·
COc1ccc(Cn2cc3c(-c4ccc(F)cc4)nnc-3c3cc(OC)c(OC)cc32)cc1
    ·	2.0%	·	-18.2%	2.8%	1.4%	-8.0%	13.2%
Cc1csc(NC(=O)COc2ccc3c(c2)CCC3)n1
    20.9%	?	-8.6%	-8.6%	-1.9%	·	·	·
Cc1ccc(C(c2sc3ncnn3c2O)N2CCC(C)CC2)cc1 (stereo not drawn)
    ·	-9.8%	·	6.3%	-11.1%	10.5%	-1.3%	?
Cc1ccc2nc3c(cc2c1)CC1(C(=O)N(C)C(=O)N(C)C1=O)C1COCCN31 (stereo not drawn)
    0.0%	5.4%	26.0%	25.3%	0.3%	-5.5%	-6.8%	-16.9%
CCC(=O)Nc1nc2c(OC)ccc(C)c2s1
    ·	11.5%	·	-12.8%	26.4%	1.5%	-2.1%	-1.9%
COC(=O)c1cn(NC(=O)c2ccc(OC)c(OC)c2)c(=O)c2ccccc12
    ?	1.2%	3.5%	-16.5%	9.4%	-6.4%	2.7%	5.0%
CCCC(C)C1(CC)C(=O)NC(=Nc2ccc(F)cc2)NC1=O (stereo not drawn)
    ?	1.8%	-7.4%	-25.8%	-1.4%	1.3%	-4.7%	-6.2%
O=C(COc1ccc(Cl)cc1Cl)NCCCN1CCOCC1
    -4.3%	4.4%	19.6%	-15.6%	8.5%	-3.5%	-3.2%	-0.6%
C=CCOc1nc2c(c(=O)n(C)c(=O)n2C)n1Cc1ccccc1
    3.8%[46.1 µM]	20.4%	-16.8%	?	2.7%	·	·	-3.5%
CN(CCOC(=O)/C=C/c1ccccc1)C(C)(C)C
    -6.4%	-14.9%	-1.4%	5.8%	-12.3%	2.9%	0.5%	4.3%
Cc1onc(-c2ccccc2)c1C(=O)OCC(=O)Nc1ccc2c(c1)OCO2
    -1.5%	-8.0%	-5.9%	-28.7%	-3.6%	-0.9%	-1.4%	-2.3%
O=C1NC(c2ccc(F)cc2)Oc2ccccc21 (stereo not drawn)
    ·	-3.8%	·	5.1%	23.5%	·	·	16.4%

(more compounds)
Structure,MARV entry inh,RE007 growth inh,Lassa entry inh,2A StopGo,SARS PLP yeast,Cruzain inh noDet,Cruzain inh Det,NS1 inh
CCN(CC)CCOCCOc1cc(C)c(Cl)c(C)c1,?,0.5%,-25.1%,·,-2.1%,-6.6%,1.3%,-0.9%
CN(C)/C=C(\C=O)c1ncc(C(F)(F)F)cc1Cl,-2.8%[46.1 µM],7.1%,8.7%,-6.8%,2.2%,·,·,·
Cc1ccc(S(=O)(=O)SC/C=C/CSS(=O)(=O)c2ccc(C)cc2)cc1,27.6%,?,0.6%,-28.7%,·,·,·,·
O=C1CN(C(=O)c2ccc(Cl)c([N+](=O)[O-])c2)c2ccccc2N1,?,7.5%,?,-13.8%,-0.6%,·,·,-3.2%
Cc1ccc(NC(=O)COC(=O)CCc2c(C)nc3ncnn3c2C)cc1C,-4.7%[46.1 µM],-5.8%,-2.4%[46.1 µM],-3.7%,-0.6%,·,·,·
CCOC(=O)C1CCN(S(=O)(=O)c2cn(C)c(=O)n(C)c2=O)CC1,·,-3.0%,·,-2.2%,-3.1%,-10.7%,1.9%,12.5%
COc1cc(CNC(C)(C)CO)cc(Br)c1OCc1ccccc1,?,-14.3%,?,-14.0%,-0.2%,·,·,1.0%
COc1ccc(OC(=O)CCCN2C(=O)c3ccccc3C2=O)cc1,6.2%,9.3%,?,3.4%,0.1%,-14.0%,-12.7%,-3.9%
CSc1ncc(Cl)c(C(=O)Nc2cccc(C)c2)n1,-23.8%,-10.3%,-8.4%,3.0%,21.8%,-4.2%,-2.3%,13.1%
Cc1ccc(S(=O)(=O)NC2=NCCCCC2)cc1,1.2%,3.9%,·,16.1%,7.5%,-1.5%,3.9%,-0.1%
N#CCCN=C(NS(=O)(=O)c1ccccc1)c1ccccc1,10.7%[46.1 µM],5.1%,10.4%,-8.3%,8.2%,·,·,-2.6%
COc1ccc2nc(NC(=O)C3CCN(S(=O)(=O)c4cccnc4)CC3)sc2c1,-9.9%,-11.8%,·,?,0.1%,1.7%,-0.5%,5.7%
O=C(Nc1cccc2nsnc12)c1cccs1,28.5%&-3.7%,?,?,0.0%&19.0%,-12.7%&-1.5%,-7.3%&-0.5%,-6.3%&-4.8%,-118.2%&-19.4%
CCOc1ccc(-c2cc(OC(=O)c3ccccc3)c3c(C)oc(C)c3c(=O)c2)cc1,-15.3%[46.1 µM],·,?,5.5%,·,-28.9%,-8.4%,·
O=C1NC[C@H](c2ccccc2)N(CC2CCCCC2)C1=O,·,-6.1%,·,11.2%,1.2%,·,·,-1.4%
O=c1c2ccccc2nc2n1CCC2O (stereo not drawn),·,13.4%,·,-13.1%,-1.5%,·,·,0.7%
Cn1c(SCC(=O)Nc2nnc(-c3ccccc3)o2)nnc1C1CC1,?,-5.9%,17.5%,1.7%,-1.3%,·,·,9.1%
COc1ccccc1CNC(=O)C(=O)NCC(c1cccs1)S(=O)(=O)c1ccccc1 (stereo not drawn),·,·,2.0%[46.1 µM],?,·,0.5%,-1.3%,·
CCC1Oc2ccc(C)cc2N(CC(=O)NCc2cccc(OC)c2)C1=O (stereo not drawn),-14.2%,1.3%,12.9%,-25.8%,-17.1%,16.8%,-1.6%,-88.7%

No new results follow: an excerpt of the list.
Structure,MARV entry inh,RE007 growth inh,Lassa entry inh,2A StopGo,SARS PLP yeast,Cruzain inh noDet,Cruzain inh Det,NS1 inh
Cn1c(SCC(=O)Nc2nnc(-c3ccccc3)o2)nnc1C1CC1,?,-5.9%,17.5%,1.7%,-1.3%,·,·,9.1%
COc1ccccc1CNC(=O)C(=O)NCC(c1cccs1)S(=O)(=O)c1ccccc1 (stereo not drawn),·,·,2.0%[46.1 µM],?,·,0.5%,-1.3%,·
CCC1Oc2ccc(C)cc2N(CC(=O)NCc2cccc(OC)c2)C1=O (stereo not drawn),-14.2%,1.3%,12.9%,-25.8%,-17.1%,16.8%,-1.6%,-88.7%
